Screening data: PubChem BioAssay, National Center for Advancing Translational Sciences (NCATS)
VACV Venus inh – inhibitors of vaccinia virus (Venus reporter); Vaccinia virus Venus reporter expression, fluorescence; Potency, µM (doses to about 36.5 µM), without a hit: top-dose activity change, negative = inhibition, usual class: inhibitors; 330,000 compounds, 0.46% hits; active means well fitted inhibition curve with a large enough effect; inconclusive means small, poorly fitted or top-dose-only effect; inactive means no such curve, though single readings can be large or run the other way; tested in A549 cells; further: nearly all actives have a fitted effect of over 30% in size; inactives centre near -10
VACV mCherry inh – inhibitors of vaccinia virus infection (mCherry reporter signal); Vaccinia virus mCherry reporter infection, fluorescence; about a quarter of the inactives have no number; Potency, µM (highest dose often 36.5 µM), for inactives: top-dose activity change, negative = inhibition, actives largely listed as inhibitors; 310,000 compounds, 0.63% hits; active = well fitted inhibition curve with a large enough effect; inconclusive = small, poorly fitted or top-dose-only effect; inactive = no such curve, though single readings can be large or run the other way; tested in A549 cells; further: nearly all actives have a fitted effect of over 35% in size; inactives centre near -10
Numbers without * were called inactive; i = inactive; u = inconclusive; x = no result given; & = joins results of further samples; [ ] = dose if it differs, or a comment. On the % scale 0 is the no-effect control and ±100 the full control effect; potency means the concentration at half of the fitted maximal effect.

SMILES	VACV Venus inh	VACV mCherry inh
COc1cc(C(=O)NCC(c2ccc(N(C)C)cc2)N2CCCC2)cc(OC)c1OC (centres undefined)	-11.2%	-8.1%
C/C(=N\Nc1ccc(C(=O)O)cc1)c1ccc(-n2ccnc2)cc1	5.3%	-7.1%
COc1cccc(OC)c1CNC(=O)CCSCc1ccccc1F	-2.4%	-14.1%
Clc1ccc(-c2csc(N3CCOCC3)n2)cc1	-1.2%	-17.4%
COC(=O)c1nc(NC(=O)c2ccccc2Br)n[nH]1	-14.0%	i
COc1ccc(C(c2nnnn2Cc2ccccc2)N2CCN(C(=O)c3ccco3)CC2)cc1OC (centres undefined)	-2.4%	x
CCOC(=O)[C@@H]1[C@H]2COc3ccc(Br)cc3[C@@H]2N2C(=O)N(c3ccc(Cl)cc3)C(=O)[C@]12C	-16.9%	i
COc1ccc(N2C(=O)/C(=C\c3ccco3)N=C2SCC(N)=O)cc1Cl	-2.4%	-9.1%
COc1ccccc1N1CCN(C(=S)NC(=O)/C=C/c2ccccc2)CC1	u	u
COC(=O)C1OC(=O)C2OC23[C@]2(C)C(O)CC4C(C)(C)C(OC(C)=O)CC(OC(C)=O)[C@@]4(C)C2CC[C@@]13C (some centres undefined)	-6.7%&-9.4%	-9.2%&-9.5%

Record cards, as listed above.
Profile of Clc1ccc(-c2csc(N3CCOCC3)n2)cc1 = VACV Venus inh: -1.2%; VACV mCherry inh: -17.4%
Profile of COc1ccc(N2C(=O)/C(=C\c3ccco3)N=C2SCC(N)=O)cc1Cl = VACV Venus inh: -2.4%; VACV mCherry inh: -9.1%
Profile of C/C(=N\Nc1ccc(C(=O)O)cc1)c1ccc(-n2ccnc2)cc1 = VACV Venus inh: 5.3%; VACV mCherry inh: -7.1%

Other records:
SMILES	VACV Venus inh	VACV mCherry inh
COc1ccc(C(=O)NC2CCCc3ccccc32)cc1S(=O)(=O)N1CCOCC1 (centres undefined)	-7.2%	2.8%
Cc1ccc2oc3c(c(=O)c2c1)C(c1ccc(O)cc1)N(c1nc(C)c(C)s1)C3=O (centres undefined)	8.3%	-7.0%
O=C1CCC(C(=O)N2CCCC2)CN1Cc1cccc(C(F)(F)F)c1 (centres undefined)	-7.8%	i
Cc1ccc(NC(=O)N(Cc2ccc3c(c2)OCO3)C2CCN(Cc3ccccc3)CC2)cc1F	-27.0%	-25.7%
CCOC(=O)COn1c(=O)c[n+]([O-])c2ccccc21	-2.9%	-13.0%
Cc1ccc(-c2nc3c(c(SCC(=O)N4CCOCC4)n2)COC(C)(C)C3)cc1	-2.7%	-3.3%
NS(=O)(=O)c1ccc(O)c(NC(=O)c2ccc([N+](=O)[O-])o2)c1	-16.1%	u
O=C(NCc1ccccc1Cl)c1ccc(S(=O)(=O)Nc2cccc(C(F)(F)F)c2)cc1	-5.6%	i
O=C(COc1ccc(F)cc1)NCCCn1ccnc1	-9.5%	11.5%
COc1ccc(CNC(=O)CSc2nnc(C)c3c(C)n(-c4ccccc4)nc23)c(OC)c1	-12.7%	-12.8%
Cc1csc(NC(=O)Cc2nn(C)c(=O)c3ccccc23)n1	-6.8%	x
CN(CC(=O)Nc1cccc(F)c1)C(=O)CCNC(=O)c1ccc(Br)cc1	-6.0%	-16.7%
CC(C)CCN1CCN(Cc2ccc(Sc3nncn3C)o2)CC1CCO (centres undefined)	0.3%	-13.1%
COc1ccc(C2=CCN3CCCCC3C2)c(-c2ccc(OC)c(OC)c2)c1 (centres undefined)	u	u
Cc1ccccc1C(=O)N1CCN(c2ccc(NC(=O)Cc3ccccc3)cc2)CC1	-11.0%	-15.2%
Fc1ccc(C2=CCN(C(c3cccs3)c3nnnn3CCc3ccccc3)CC2)cc1 (centres undefined)	u	u
CC(=O)N1CCC(C(=O)N2c3ccccc3N=C(c3ccc(C(F)(F)F)cc3)C2C(=O)NC(C)(C)C)CC1 (centres undefined)	-3.4%	u
COc1ccc(OC)c(CN2C(=O)c3ccccc3C2C(=O)NCC2CCCO2)c1 (centres undefined)	8.2%	i
Cc1cc(C)c(C)c(OCCCn2ccnc2)c1	-14.2%	x
C=CC[C@@H](CC(=O)N[C@H](CO)Cc1ccccc1)C(=O)N[C@@H](C)COC(=O)[C@@H](CC=C)CC(=O)OC(C)(C)C	-14.6%	-3.6%
CCOC(=O)c1cnc(-n2[nH]c(C)cc2=O)[nH]c1=O	-0.5%	-18.1%
CCN(CC)C(=O)CSc1nc(N)c(C(=O)Nc2ccc(OC)cc2)s1	u	12.6µM*
Cc1cnc(SCC2CCCO2)nc1C1CCCN(C(=O)c2ccc(S(N)(=O)=O)cc2)C1 (centres undefined)	0.0%	-14.6%
Cc1cccc2nc(-c3cccc(NC(=O)Cc4ccccc4)c3)cn12	-20.5%	i
CCC1CCCCN1C(=O)c1ccc(OC2CCN(C(=O)COC)CC2)cc1 (centres undefined)	-12.6%	i
Cc1c(C(=O)NCC2CCCO2)oc2ccc(S(=O)(=O)N3CCCC3)cc12 (centres undefined)	-8.8%	-16.9%
O=C(Nc1ccc(F)cc1)c1nc(SCc2ccccc2F)ncc1Cl	-8.6%	i
Nc1cc(Oc2ccc(F)cc2F)cc([N+](=O)[O-])c1	0.4%	-27.0%
Cc1ccsc1C(=O)OCC(=O)NCc1ccc2c(c1)OCO2	-6.5%	x
CC(C)C(C)NC(=O)Cn1cnc2c(oc3ccccc32)c1=O (centres undefined)	-13.2%	-4.6%
CCc1nnc(NC(=O)CSc2nnc(C3CC3)n2C)s1	-14.8%	-16.3%
O=C1[C@H](Cc2ccccc2)NCC=CC[C@H](c2ccco2)N1Cc1ccccc1	-24.8%	i
NC(=O)c1ccc(N)nc1	-15.0%&-1.8%	-4.9%&-6.6%
CC(C)[C@@H]1Cc2[nH]c(=O)[nH]c(=O)c2[C@H](c2ccc(F)cc2)O1	7.2%	12.0%
Cc1ccc(S(=O)(=O)N2C[C@H]3n4c(=O)ccc(=O)n4C[C@H](OC(=O)NCc4ccccc4F)[C@@]3(O)C2)cc1	u	u
COC(=O)c1cc2oc3ccccc3c2n1CC(=O)Nc1ccc(OC)c(OC)c1OC	-6.5%	-16.7%
CCOC(=O)N1CCC(NC(=O)Cn2cc3c(n2)CCCC3)CC1	-0.7%	-3.7%
Cc1coc2c(C)c3oc(=O)c(CCC(=O)NCCc4ccccc4F)c(C)c3cc12	u	u
O=C(c1cc(-c2ccccc2Cl)on1)N1CCN(C(=O)c2ccco2)CC1	-17.9%	-2.1%
O=C(Nc1ccccc1)/C(=C/c1ccc(F)cc1)NC(=O)c1ccco1	2.9%	27.3%
COc1cccc(CN(CC(=O)NC2CCCCC2)C(=O)c2csnn2)c1	-6.5%	i
CCOc1ccc2c(c1)c1nnc(SCC(=O)NC3CC3)nc1n2C	-19.2%	i
Cc1ccc(N(C)C(=O)c2cc(S(=O)(=O)N3CCCC3)cn2C)cc1	-17.1%	i
COc1ccc(CN(Cc2cc3cc4c(cc3[nH]c2=O)OCO4)C(=O)NC2CCCCC2)cc1	u	x
C[C@H](NC(=O)c1ncn2c1C(=O)NC[C@@H]2C)C(=O)OC(C)(C)C	-5.6%	-9.1%
O=C(CCCOc1ccccc1)Nc1cccc(S(=O)(=O)N2CCOCC2)c1	-15.8%	-14.6%
CCOC(=O)c1cnc2nc(NCc3cccc(Br)c3)[nH]n2c1=O	-5.0%	-20.2%
O=C1CCC(c2ccccc2)=NN1Cc1c(F)cccc1Cl	-10.3%	-8.2%
CSc1nnc(C)c(/C=C/NOCc2cccc(F)c2)n1	-5.8%	u
CCOc1ccc(-n2c(=O)[nH]cc(C(=O)N3CCc4ccccc43)c2=O)cc1	2.82µM*	u
Next section.
SMILES	VACV Venus inh	VACV mCherry inh
O=C(NCC(c1ccco1)N1CCN(c2ccc(F)cc2)CC1)c1cccs1 (centres undefined)	-6.4%	-11.6%
CC(=O)Nc1ccc(S(=O)(=O)C(C#N)c2nc3ccccc3nc2NCCO)cc1 (centres undefined)	-5.1%	-7.1%
O=S(=O)(c1cccc(C(F)(F)F)c1)c1ccc(O)cn1	-8.2%	-15.4%
CCc1ccc(Nc2nnc(SC(C)C(=O)NC3CC3)s2)cc1 (centres undefined)	-14.2%	-1.8%
COc1ccc(S(=O)(=O)N(C)C[C@H]2OCc3cnnn3CCCC(=O)N([C@H](C)CO)C[C@@H]2C)cc1	-6.5%	i
CN(CC(=O)Nc1ccc(F)c(F)c1)S(=O)(=O)c1cccs1	-13.4%	7.7%
CCOC(=O)c1c(C)n(C)c2ccc(O)c(CN3CCC(C)CC3)c12	-10.6%	-23.0%
CC(=O)Nc1ccc(C(=O)N(C2=NC(C)CS2)c2ccc(Cl)cc2)cc1 (centres undefined)	-28.3%	u
Cc1ccc(C(=O)c2c3ccc([N+](=O)[O-])cc3[n+]([O-])n2CCCC(N)=O)cc1	u	u
CS(=O)(=O)N(Cc1ccccc1Cl)c1ccc(C(=O)NCc2ccccn2)cc1	-7.6%	i
O=C(/C=C/c1cccnc1)c1ccc(O)cc1	1.6%	i
CCN(C(=O)CSc1nc2ccccc2nc1Cc1cccc(OC)c1)c1cccc(C)c1	-13.4%	-7.3%
COc1cc(C(=O)N2CCN(CCc3ccncc3)CC2)cc(OC)c1OC	-7.2%	-3.8%
CC(C)(C)c1ccc(Cn2nnc3c(=O)[nH]c(C4CCCN(C(=O)c5cccs5)C4)nc32)cc1 (centres undefined)	-25.8%	u
Cc1cccc(N2CCN(C(=O)Cn3ncc4c3-c3ccccc3OC4)CC2)c1C	-11.7%	-26.6%
COc1ccc(C(=S)N2CCCCC2)cc1Br	-4.0%	-4.0%
C[C@H]1CCC[C@]2(O[C@H](CCO)C[C@@H](O)[C@@H]2O)O1	-6.9%	i
O=C(c1sc2ccccc2c1Cl)N1CCN(c2ccccc2F)CC1	-9.4%	-17.0%
COc1ccc(CCNC(=O)CSc2ccc3ccccc3c2)cc1OC	-10.9%	-20.2%
COc1ccc2c(c1)C(C)CC(C)(C)N2C(=O)Nc1ccccc1 (centres undefined)	-2.0%	-14.6%
O=C(CN(Cc1ccccc1)S(=O)(=O)c1ccccc1)N/N=C/c1ccc([N+](=O)[O-])cc1	-21.2%	-23.1%
C=CCn1c(SCC(=O)c2c(N)n(CCC)c(=O)n(C)c2=O)nnc1-c1ccncc1	-9.1%	-14.3%
CN(C(=O)c1ccc(F)cc1)c1ccc(OCC(=O)Nc2ccccc2C(=O)O)cc1	-13.6%	i
N#Cc1c(-c2ccccc2)ccn(Cc2ccc(Cl)cc2)c1=O	-17.4%	x
CC1Cc2ccccc2N1C(=O)C1CCN(S(=O)(=O)c2cccs2)CC1 (centres undefined)	17.0%	2.8%
CCn1nc(C)c(NC(=O)CCCSc2nc(-c3ccco3)cc(C(F)(F)F)n2)c1C	u	-20.3%[1.46 µM]
CCc1nnc(NS(=O)(=O)c2ccc(NC(=O)c3ccc(S(=O)(=O)N(CC)CC)cc3)cc2)s1	-9.0%	-24.5%
CS(=O)(=O)Nc1ccc(Br)cc1	-5.9%	-5.4%
Cc1ccc2c(c1)NC(C(C)(C)C)CO2 (centres undefined)	u	x
COc1ccc(CC(=O)n2[nH]c(=O)c3ccccc3c2=O)cc1OC	-1.8%	i
NC(=O)C1(Nc2ccc([N+](=O)[O-])cc2)CCCC1	2.5%	i
COc1ccc(N2C3=C(CC4=C2CCCC4=O)C(=O)CCC3)cc1	-10.2%	i
COC(=O)c1ccsc1NC(=O)c1ccc2c(c1)OCCO2	u	u
COC(=O)C[C@H]1C=C[C@H](NC(=O)c2cccc(F)c2)[C@@H](CO)O1	-1.7%	0.9%
COC(=O)[C@]12CCCCC=C1N(Cc1cccc3ccccc13)C(=O)[C@H](CC(=O)N1CCN(C(=O)C3CC3)CC1)C2	-15.5%	2.2%
COC(=O)c1[nH]c2ccc(C)cc2c1NS(=O)(=O)c1ccc(F)c(C)c1	-22.6%	-22.8%
CCC(C)[C@H](NC(=O)C1CC(=O)N(c2ccc3c(c2)OCCO3)C1)C(=O)NC1CCCC1 (some centres undefined)	1.8%	-9.6%
COc1ccc(OCc2nnc(SCC(=O)N3CCCCC3)o2)cc1	-2.8%	-7.8%
CCC(C)N(C(=O)CSc1nnc(C)n1C)C1CCS(=O)(=O)C1 (centres undefined)	5.4%	-11.8%
CCCCCCCCN1C(=O)[C@H](CC(=O)NCc2ccccc2)C[C@@]2(C(=O)OC)CCCCC=C12	-16.3%	-18.9%

In the list so far, 2 have a cyano group:
SMILES	VACV Venus inh	VACV mCherry inh
CC(=O)Nc1ccc(S(=O)(=O)C(C#N)c2nc3ccccc3nc2NCCO)cc1 (centres undefined)	-5.1%	-7.1%
N#Cc1c(-c2ccccc2)ccn(Cc2ccc(Cl)cc2)c1=O	-17.4%	x

Other records:
SMILES	VACV Venus inh	VACV mCherry inh
Cc1cc(C)cc(-n2ncc3c2CCCC3NC(=O)CCCn2cncn2)c1 (centres undefined)	-13.3%	-23.4%
COc1ccc2cc3cc(C(=O)NCc4ccc(C)cc4)oc3nc2c1	1.0%	-4.1%
COc1ccc(CNC(=O)c2cccc3c2C(=O)N(CC2CCCO2)C3)cc1 (centres undefined)	-2.3%	-6.3%
CC(=O)c1ccc(NC(=O)C2CCN(S(=O)(=O)c3c(C)noc3/C=C/c3ccc(C)cc3)CC2)cc1	u	-21.4%
COc1ccc(NS(=O)(=O)c2cccc(NC(=O)CNC(C)=O)c2)cc1	3.2%	i
Cn1nnc2c(sc3nc(N4CCOCC4)c4c(c32)CCCC4)c1=O	u	u
O=C(CCl)NC1(C(F)(F)F)C(=O)Nc2c1c(=O)[nH]c(=O)n2-c1ccccc1 (centres undefined)	-13.8%	-11.1%
